Assay outcomes from PubChem BioAssay.
PV pol inh = inhibitors of poliovirus RNA polymerase binding and polymerization; P03300; poliovirus polymerase elongation, fluorescence polarization; stronger effect = lower value; % elongation, % (compound at 16.7 µg/mL); 0.66% of 150,000 active; AID 588519; in the data active means % elongation below about 90%; further: some results filed as inactive read as strong as hits
Target sequence (P03300 1749-2209 limits assumed): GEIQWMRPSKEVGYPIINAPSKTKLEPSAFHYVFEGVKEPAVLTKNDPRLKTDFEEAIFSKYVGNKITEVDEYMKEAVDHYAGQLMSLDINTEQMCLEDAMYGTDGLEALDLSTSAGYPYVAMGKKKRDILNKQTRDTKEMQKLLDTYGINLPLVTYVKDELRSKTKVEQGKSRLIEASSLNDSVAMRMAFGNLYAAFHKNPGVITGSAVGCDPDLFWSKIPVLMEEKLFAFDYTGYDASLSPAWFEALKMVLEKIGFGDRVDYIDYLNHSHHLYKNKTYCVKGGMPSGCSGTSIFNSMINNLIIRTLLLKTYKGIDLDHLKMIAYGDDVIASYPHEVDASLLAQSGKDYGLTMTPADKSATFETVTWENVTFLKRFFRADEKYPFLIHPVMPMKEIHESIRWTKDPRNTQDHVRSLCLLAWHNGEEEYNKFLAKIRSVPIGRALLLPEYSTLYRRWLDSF
PV pol inh intensity = recorded beside PV pol inh, whose call it bears; % elongation; measured here: total intensity read-out; formula for this scale not given here;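 total fluorescence in place of polarization; lower means less elongation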
* hit, by the source's call. Some of the compounds tested (hit frequency here may not be typical).

SMILES	PV pol inh	PV pol inh intensity
CN(C)c1ccc(NC(=O)Cn2cc(S(=O)(=O)Cc3cccc(Cl)c3)c3ccccc32)cc1	106	107
Cc1ccccc1-c1nn2c(=O)cc(CN3CCN(S(=O)(=O)c4ccc(Cl)cc4)CC3)nc2s1	109	103
Cc1ccc(NC(=O)CNC(=O)Cn2c(C)cc3ccccc3c2=O)cc1F	110	112
Cc1oc2c(c1C(=O)Nc1ccc(F)c(F)c1)C1=NCCN1C=N2	109	103
CCc1cnc2c(c1SCC(=O)NCc1ccccc1Cl)c(=O)n(C)c(=O)n2C	103	111
COc1cc(NC(=O)CN2C(=O)COc3ccc(S(=O)(=O)NC4CCCC4)cc32)cc(OC)c1	108	98
Cc1ccc(CSc2ncc(Cl)c(C(=O)Nc3nnc(C)s3)n2)cc1	108	112
CCOc1ccc(CCNC(=O)Cn2c(-c3cccs3)cc3ccccc32)cc1	110	107
COc1ccc(-n2nc(C(=O)Nc3cc(C)ccn3)c3c4ccccc4n(C)c3c2=O)cc1	108	106
Cc1ccc(C(=O)COC(=O)c2cc(-c3ccc(Cl)cc3)nc3ccccc23)cc1	102	99

Some of the entries above in another layout.
The line under a structure holds: PV pol inh | PV pol inh intensity
- CCOc1ccc(CCNC(=O)Cn2c(-c3cccs3)cc3ccccc32)cc1
→ 110 | 107
- COc1ccc(-n2nc(C(=O)Nc3cc(C)ccn3)c3c4ccccc4n(C)c3c2=O)cc1
→ 108 | 106
- COc1cc(NC(=O)CN2C(=O)COc3ccc(S(=O)(=O)NC4CCCC4)cc32)cc(OC)c1
→ 108 | 98
- Cc1oc2c(c1C(=O)Nc1ccc(F)c(F)c1)C1=NCCN1C=N2
→ 109 | 103
- CN(C)c1ccc(NC(=O)Cn2cc(S(=O)(=O)Cc3cccc(Cl)c3)c3ccccc32)cc1
→ 106 | 107
- Cc1ccc(CSc2ncc(Cl)c(C(=O)Nc3nnc(C)s3)n2)cc1
→ 108 | 112
- Cc1ccccc1-c1nn2c(=O)cc(CN3CCN(S(=O)(=O)c4ccc(Cl)cc4)CC3)nc2s1
→ 109 | 103

More entries follow.
SMILES	PV pol inh	PV pol inh intensity
Cc1ccc(Sc2c(C)nn(-c3ccccc3)c2OC(=O)CC(C)C)cc1	108	109
CCOc1ccc(-c2cc(C(=O)NCCc3ccc(C)cc3)c3ccccc3n2)cc1	109	105
O=C(c1ccccc1)c1ccc2nc(Nc3cc(Cl)ccc3O)c3nncn3c2c1	99	97
COc1ccc(N2CCN(CCCNC(=O)c3c(C)nn(-c4ccc(F)cc4)c3-n3cccc3)CC2)cc1	103	106
Cc1nc2ccn(Cc3cccs3)c(=O)c2cc1C(=O)N1CCN(c2ccccc2)CC1	106	114
COc1ccc(CNC(=O)C2CCN(C(=O)N3CCOc4ccc(C)cc43)CC2)cc1	109	109
COc1ccc(Cn2c(=O)c3cccnc3n(CC(=O)Nc3c(C)cc(C)cc3C)c2=O)cc1	109	109
Cc1nn2c(=O)cc(COC(=O)COc3ccccc3C)nc2s1	106	110
Cc1cc(C)c(NC(=O)Cn2c(=O)n(CC(=O)NCCc3ccccc3)c(=O)c3ccccc32)c(C)c1	110	108
CC(C)(Oc1ccc(Br)cc1)C(=O)Nc1cc(-c2nc3ccccc3[nH]2)ccc1Cl	107	108
CCc1ccc(-n2c(=O)c3ccccc3n(Cc3ccccc3C#N)c2=O)cc1	107	111
CC1=C(C(=O)Nc2ccccc2)C(c2ccncc2)n2nc(SCc3ccccc3)nc2N1 (stereo not given)	104	110
CCc1c(CN2CCN(c3ccc(F)cc3)CC2)csc1C	107	109
Cc1ccc(-c2nnc(Nc3cccc(O)c3)c3ccccc23)cc1S(=O)(=O)N1CCN(C)CC1	108	114
Cc1ccccc1NC(=O)CSc1nnc(-c2cccc(Cl)c2)o1	101	102
COc1ccc(/C=C\c2onc(C)c2S(=O)(=O)N2CCC(C(=O)Nc3ccc(Cl)cc3)CC2)cc1	108	114
Cc1ccc(-c2cc(-c3ccc4c(c3)NC(=O)CO4)nc3c2COc2ccc(C)cc2-3)cc1	108	111
Cc1ccc(-n2c(SCC(=O)N3CCCc4ccccc43)nc3c([nH]c4ccccc43)c2=O)cc1	110	111
CCOC(=O)C1=C(CN2CCN(c3cc(C)ccc3C)CC2)NC(=O)NC1c1ccccc1 (stereo not given)	109	114
CCn1cc2nc(SCc3cccc(Cl)c3)n(Cc3ccc(C)cc3)c(=O)c2n1	108	109
COc1cc2c(cc1NC(=O)C(C)Oc1ccc(Cl)cc1Cl)oc1ccccc12 (stereo not given)	105	106
Cn1c(/C(C#N)=C/c2ccc(C(F)(F)F)cc2)nc2ccccc21	101	105
Cc1ccc2c(=O)cc(CSCC(=O)Nc3nnc(C)s3)[nH]c2c1	114	108
CC(C)c1ccc(C2N3CC4(C)CN2CC(c2ccccc2)(C3)C4=O)cc1 (stereo not given)	101	101
CCN(CC)CCCNC(=O)CSc1nc2nc(C)c(Cc3ccccc3C)c(C)n2n1	102	110
COc1ccc(NC(=O)N2CCc3c([nH]c4ccc(OC)cc34)C2c2ccc(OC)cc2)cc1 (stereo not given)	110	109
CCCCN(CC)CCCNC(=O)c1ccc2c(c1)N(Cc1ccc(C)cc1)C(=O)c1ccccc1S2	114	115
CCCCN(CC)CCNC(=O)Cn1cnc2sc(C)c(S(=O)(=O)N3CCC(C)CC3)c2c1=O	103	105
Cc1ccc(-n2c(=O)c3sc4ccccc4c3n(C)c2=O)cc1F	103	104
CCc1ccccc1NC(=O)Nc1cc(C(=O)NCc2ccccc2OC)ccc1N1CCCC1	106	111
COc1cc(OC)c(NS(=O)(=O)c2cc3c(cc2C)N(C(C)=O)CCO3)cc1Cl	105	111
COc1ccc(C2CC(=O)c3cc(-c4nc(-c5ccc(Cl)cc5)cs4)c(=O)[nH]c3C2)cc1 (stereo not given)	113	115
COCCCNc1nc(NCc2ccc(C)cc2)c2cnn(C)c2n1	105	105
CCc1ccc(OCC(=O)N(Cc2ccc(C)o2)C2CCS(=O)(=O)C2)cc1 (stereo not given)	118	109
O=C(NC1CCCCC1)c1ccc(CSc2nc3cccnc3n2Cc2ccc(F)cc2)cc1	112	118
O=C(CCCn1c(=O)c2cccn2c2cccnc21)NCc1ccccc1Br	103	91
COc1cccc(NC(=O)Cn2c(=O)n(-c3ccccc3)c(=O)c3ccc(C(=O)NCc4ccc5c(c4)OCO5)cc32)c1	101	98
CCOc1ccc(CCNC(=O)c2ccc(CS(=O)(=O)Cc3ccccc3Cl)o2)cc1OCC	102	93
CCOC(=O)c1ccc(N2C(=O)c3n[nH]c(C)c3C2c2ccc(O)c(OC)c2)cc1 (stereo not given)	108	111
Cc1cc2c(cc1S(=O)(=O)N(CCO)Cc1ccccc1)OCC(=O)N2	113	117
CCc1cccc(C)c1NC(=O)C(CC)Sc1nc2ccncc2[nH]1 (stereo not given)	104	107
CCCCOc1ccc(C2C(C(=O)Nc3ccccc3OC)=C(C)Nc3nnnn32)cc1OC (stereo not given)	104	103
Cc1ccc(C(=O)Nc2ccccc2C(=O)OCc2cc(=O)n3nc(C(C)C)sc3n2)cc1	111	105
CCOc1ccc(NC(=O)Cn2nnc(-c3nc(-c4ccncc4)no3)c2N)cc1	107	113
CCOC(=O)c1[nH]c(C)c(CCC(=O)N2CCN(c3cc(Cl)ccc3C)CC2)c1C	101	103
COc1ccccc1C(=O)Nc1ccc(OCc2cc(=O)n3ccsc3n2)cc1	112	114
CC1=C(C(=O)OCc2ccc(C)cc2)C(c2c(Cl)cccc2Cl)CC(=O)N1 (stereo not given)	106	107
Cc1oc2ncn(C)c(=O)c2c1C(=O)NCc1ccccc1	106	102
COc1ccc(NS(=O)(=O)c2ccc3c(c2)CC(C)N3C(=O)C2CCC2)cc1OC (stereo not given)	106	103
Cc1ccc(C)c(CSc2nnc(C)n3c2cc2sccc23)c1	102	96

Another view of part of the listing above:
Order of results – PV pol inh	PV pol inh intensity
> CC1=C(C(=O)OCc2ccc(C)cc2)C(c2c(Cl)cccc2Cl)CC(=O)N1 (stereo not given)
  106	107
> Cc1oc2ncn(C)c(=O)c2c1C(=O)NCc1ccccc1
  106	102
> COc1ccc(NS(=O)(=O)c2ccc3c(c2)CC(C)N3C(=O)C2CCC2)cc1OC (stereo not given)
  106	103
> Cc1ccc(C)c(CSc2nnc(C)n3c2cc2sccc23)c1
  102	96

Additional results:
SMILES	PV pol inh	PV pol inh intensity
CC(=O)N1CCc2cc(Br)cc(S(=O)(=O)N3CCN(c4cccc(C(F)(F)F)c4)CC3)c21	107	109
CCN(C(=O)CSc1nnc(C)n2c1cc1occc12)c1ccccc1	104	98
O=C(NCC1CCCO1)c1c[nH]c2ccc(S(=O)(=O)Nc3ccc(F)cc3F)cc2c1=O (stereo not given)	105	105
Cc1ccccc1-c1nc2cc(NC(=O)Cc3ccc(Cl)cc3)ccc2o1	107	110
Cc1nn2c(-c3ccco3)ccnc2c1-c1ccc(F)cc1	105	110
Cc1ccc(NC(=O)CSc2nnc(-c3nnn(-c4ccc(F)cc4)c3C)o2)cc1Br	102	104
Cc1cc(C)c2c(=O)cc(C(=O)Nc3sc4c(c3C(=O)NCc3cccnc3)CCCC4)oc2c1	111	109
COc1cc2nc(SCC(=O)Nc3ccccc3C)n3nc(CCn4c(C)nc5ccccc54)nc3c2cc1OC	101	103
O=C(Nc1cccc(Cl)c1)C1CCCN1S(=O)(=O)c1cccc2cccnc12 (stereo not given)	109	107
COc1ccc(OCc2nnc(-c3ccccc3)o2)cc1	108	91
COc1ccc(NC(=O)c2c(C(=O)Nc3ccccc3)sc3nc(C)cc(=O)n23)cc1	108	107
CSc1cccc(NC(=O)CC(c2ccc(F)cc2)N2Cc3ccccc3C2=O)c1 (stereo not given)	106	112
CCOc1ccc(-c2cccc(NS(=O)(=O)c3ccc(F)cc3F)c2)nn1	105	109
Cc1ccc(CN2COc3c(Cl)cc4c(-c5ccccc5)cc(=O)oc4c3C2)cc1	111	117
COc1ccccc1CNC(=O)CN1C(=O)COc2ccc(S(=O)(=O)Nc3ccccc3)cc21	101	97
Cc1ccccc1Nc1c(-c2c[nH]c3ccccc23)nc2ccc(Cl)cn12	104	106
CCOC(=O)Cc1ccc(NC(=O)n2ncc3cc(Cl)ccc32)cc1	105	111
Cc1ccc(NC(=O)CCC(=O)N2CCOc3ccccc32)c(Cl)c1	111	113
COc1cccc(NC(=O)CSC2=Nc3ccccc3C3=NC(CCC(=O)NCc4ccco4)C(=O)N23)c1 (stereo not given)	103	105
Cc1c(NC(=O)CC(C)C)cccc1-c1nc2cccnc2s1	109	103
COc1ccc(-n2ccn(CC(=O)NCc3ccc(C)cc3)c(=O)c2=O)cc1OC	107	105
COc1ccc(C)cc1-n1nnc(S(=O)(=O)c2ccc(C)cc2)c1C	103	107
CCC1CN(C(=O)N2CCC(C(=O)NCCCc3ccccc3)CC2)c2ccccc2O1 (stereo not given)	112	108
Cc1ccc(CCNC(=O)c2cc3c(-c4ccccc4F)nn(C)c3s2)cc1	104	105
CCOc1cc2[nH]c(=O)n(CCCC(=O)NCc3ccc(OC)cc3)c(=O)c2cc1OCC	103	100
Cc1ccc(-n2ncc(C(=O)NCc3ccccn3)c2C2CCN(C(=O)OC(C)(C)C)CC2)c(C)c1	101	102
CCOc1ccc(C2=C(C(=O)CC)Sc3nncn3N2C(=O)CC)cc1	82*	85*
Cc1cccc(NC(=O)CN2C(=O)CCn3nc(-c4cccn4C)cc32)c1C	103	103
COc1ccccc1CNC(=O)Cn1ncn2c(cc3sccc32)c1=O	106	111
O=C(CSCc1ccccc1Cl)N1CCN(c2ccc(Cl)cc2)CC1	115	119

Given as labelled records: four of the compounds above
COc1ccccc1CNC(=O)Cn1ncn2c(cc3sccc32)c1=O
  PV pol inh: 106	PV pol inh intensity: 111

Cc1cccc(NC(=O)CN2C(=O)CCn3nc(-c4cccn4C)cc32)c1C
  PV pol inh: 103	PV pol inh intensity: 103

COc1ccc(-n2ccn(CC(=O)NCc3ccc(C)cc3)c(=O)c2=O)cc1OC
  PV pol inh: 107	PV pol inh intensity: 105

Cc1ccc(CCNC(=O)c2cc3c(-c4ccccc4F)nn(C)c3s2)cc1
  PV pol inh: 104	PV pol inh intensity: 105

Following part
SMILES	PV pol inh	PV pol inh intensity
Cc1ccc(CNC(=O)c2c(O)nc3cc(C)ccn3c2=O)cc1	104	108
Cc1cccc(C)c1OCCn1c(C2CC(=O)N(c3cccc(Cl)c3)C2)nc2ccccc21 (stereo not given)	107	109
COc1ccc(S(=O)(=O)n2nc(C)c(S(=O)(=O)N3CCCCCC3)c2C)cc1C	106	111
COc1ccc(OC)c(CNC(=O)Nc2cn(CC(C)C)c(=O)c3ccccc23)c1	25*	48*
CC(CCO)Nc1nc2c(c(=O)n(C)c(=O)n2C)n1Cc1ccc(Br)cc1 (stereo not given)	92	126
O=C(NCCCN1CCN(c2ccccc2F)CC1)c1ccc2nc(N3CCCCC3)sc2c1	108	111
Cc1cccc(CCNC(=O)c2nn(C)c3c2CSc2ccccc2-3)c1	107	112
CCCSc1nc2sc3c(c2c(=O)n1-c1cccc(Br)c1)CC(C)(C)OC3	106	104
CCn1cc(CCC(=O)NCc2ccc(C)cc2)c2ccccc21	104	109
COc1cc(Cl)c(C)cc1NC(=O)c1nn(-c2ccc(C)cc2)c(=O)n(C)c1=O	107	114
Cc1c(Cl)cccc1NC(=O)C1CCN(c2ncnc3c2nc2n3CCCCC2)CC1	102	97
Cc1ccc(S(=O)(=O)Cc2ccc(C(=O)N3CCN(c4cccc(C)c4C)CC3)o2)cc1	107	101
CCOc1ccc(-c2nnc(Nc3ccc(S(N)(=O)=O)cc3)c3ccccc23)cc1	108	107
COc1cccc(NC(=O)c2sc3nc4n(c(=O)c3c2C)CCC4)c1	105	111
CCOC(=O)C1CCN(S(=O)(=O)c2cc(-c3onc(C)c3C)ccc2OC)CC1	112	108
CC(C)CCNC(=O)CN1C(=O)CSc2ccc(S(=O)(=O)N3CCCCC3)cc21	105	109
O=C(COc1ccccc1)Nc1nnc(S(=O)(=O)Nc2ccccc2)s1	98	95
O=C(CCS(=O)(=O)c1cc(Br)cc2c1N(C(=O)C1CC1)CC2)NCc1ccccc1Cl	105	111
Cc1ccc(N2C(=O)CSC23C(=O)N(CC(=O)NC2CCCCC2)c2ccccc23)cc1 (stereo not given)	113	112
CC1CCCN(CCCNC(=O)CN2C(=O)CSc3ccc(S(=O)(=O)N4CCOCC4)cc32)C1 (stereo not given)	107	108
Cn1c(=O)n(C)c2cc(N3CCCCC3)c(NC(=O)c3c(F)cccc3F)cc21	103	104
